Lassa entry inh: blocks Lassa virus binding to or entry into cells; Potency, µM (top dose mostly 37.9 µM), for inactives: at the top dose activity change, negative = inhibition, hits mostly inhibitors; Lassa virus pseudotype entry inhibition, cell reporter; control for the full effect not named in the record; hit rate 1.2% among 300,000; active means well fitted inhibition curve with a large enough effect; inconclusive means small, poorly fitted or top-dose-only effect, or effect the other way; inactive means flat fitted curve, though single readings scatter; tested in HEK293 cells; note: % is set by controls: 0 for no effect and ±100 for the full control effect; nearly all actives have a fitted effect of over 50% in size; luciferase read-out
SARS PLP yeast: blocks SARS-CoV papain-like protease in a yeast assay | S. cerevisiae expressing SARS-CoV PLpro, growth rescue; control for the full effect not named in the record | Potency, µM (highest dose often 32.9 µM), without a hit: top-dose activity, positive = growth rescue | hit rate 0.19% among 330,000 | AID 485353; note: 0% is about no effect; nearly all actives have a fitted effect of over 55% in size; growth read by luminescence after 48 h
Cruzain noTriton: blocks cruzain activity in detergent-free assay; P25779; purified cruzain, Z-FR-AMC fluorescence, no detergent; Potency, µM, inactives show max response, negative = inhibition, hits mostly inhibitors; hit rate 2.3% among 200,000; AID 1476; active = well fitted curve in the direction sought with a large enough effect; inconclusive = small, poorly fitted or top-dose-only effect, or another doubt; inactive = no such curve, though single readings can be large; an effect the other way counts as inactive or inconclusive;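 note: plate controls were enzyme without inhibitor for no effect and buffer without enzyme for full effect; nearly all actives have a fitted effect of over 40% in size; top concentration of the series not given in the record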
Target sequence (P25779 123-467 limits assumed): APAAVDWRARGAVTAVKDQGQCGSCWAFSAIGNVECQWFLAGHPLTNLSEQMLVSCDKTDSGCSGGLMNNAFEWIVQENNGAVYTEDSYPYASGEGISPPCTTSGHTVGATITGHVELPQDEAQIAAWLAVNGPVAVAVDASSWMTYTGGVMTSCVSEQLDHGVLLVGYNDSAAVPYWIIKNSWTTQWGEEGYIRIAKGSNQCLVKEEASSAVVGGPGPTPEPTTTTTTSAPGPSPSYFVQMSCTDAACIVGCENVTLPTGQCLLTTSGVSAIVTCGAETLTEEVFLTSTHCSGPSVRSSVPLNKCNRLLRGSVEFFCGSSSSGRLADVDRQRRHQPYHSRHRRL
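Purified cruzain at 1.5 nM, pre-incubated 15 min with compound at room temperature in 100 mM sodium acetate pH 5.5, 5 mM DTT, 0.00005% Triton X-100. Reaction started with 2 uM Z-FR-AMC; AMC fluorescence increase over 60 s gives rate.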
NS1 function inh: inhibitors of influenza NS1 protein function; AID 2326; hit rate 0.4% among 270,000; S. cerevisiae slowed by influenza A NS1, growth recovery by OD600; Potency, µM (highest dose often 46.1 µM), for inactives: top-dose activity, positive = more growth; note: actives are rising curves; nearly all actives have a fitted effect of over 50% in size
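Compounds were scored for reversing the slow growth caused by influenza A NS1 in S. cerevisiae, measured by optical density at 600 nm. Assay medium contained 2% galactose at pH 6.0; NS1-free yeast of the same strain were the positive control.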
2A StopGo: FMDV 2A StopGo reporter, luciferase signal | AID 1159524 | human cells with a luciferase reporter of 2A StopGo recoding; control for the full effect not named in the record | hit rate 1.2% among 410,000 | Potency, µM (titrated, usually from 57.9 µM), inactives show top-dose signal change, negative = less light; active = well fitted falling curve with a large enough effect; inconclusive = small, poorly fitted or top-dose-only effect; inactive = no such curve, though single readings can be large or run the other way; tested in HEK293T cells; note: % is set by controls: 0 for no effect and ±100 for the full control effect; nearly all actives have a fitted effect of over 45% in size; luciferase light after 4 h
Marburg entry inh: Marburg virus entry inhibition. Marburg virus pseudotyped entry inhibition, cell reporter; control for the full effect not named in the record; about a third of the inactives were read at about 46 µM. Potency, µM (series often up to 37.8 µM), inactives show top-dose activity change, negative = inhibition, usual class: inhibitors. hit rate 1.8% among 300,000. AID 540276; active = well fitted inhibition curve with a large enough effect; inconclusive = small, poorly fitted or top-dose-only effect, or effect the other way; inactive = flat fitted curve, though single readings scatter; tested in HEK293 cells; about a fifth of its hits are not listed in these tables; note: % is set by controls: 0 for no effect and ±100 for the full control effect; luciferase read-out
Cruzain Triton: cruzain (T. cruzi) inhibition with detergent; P25779; purified cruzain, Z-FR-AMC fluorescence, 0.01% Triton; Potency, µM, inactives show max response, negative = inhibition, actives largely listed as inhibitors; hit rate 0.43% among 200,000; AID 1478; active = well fitted curve in the direction sought with a large enough effect; inconclusive = small, poorly fitted or top-dose-only effect, or another doubt; inactive = no such curve, though single readings can be large; an effect the other way counts as inactive or inconclusive;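 note: plate controls were neutral wells for no effect and buffer without enzyme for full effect; nearly all actives have a fitted effect of over 40% in size; top concentration of the series not given in the record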
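Cysteine protease activity tested under reducing, mildly acidic conditions (100 mM sodium acetate pH 5.5, 5 mM DTT) plus 0.01% Triton X-100. Cruzain 1.5 nM; substrate Z-FR-AMC 2 uM; 15 min compound preincubation at room temperature.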
RE007 growth inh: less growth of the S. pombe RE007 Vpr strain; S. pombe RE007 Vpr strain, BacTiter-Glo ATP luminescence, 24 h; control for the full effect not named in the record; Potency, µM (titrated, usually from 92.2 µM), without a hit: at the highest dose activity change, negative = less growth; hit rate 0.21% among 360,000; AID 651644; active = well fitted falling curve with a large enough effect; inconclusive = small, poorly fitted or top-dose-only effect; inactive = no such curve, though single readings can be large or run the other way;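 note: % is set by controls: 0 for no effect and ±100 for the full control effect; nearly all actives have a fitted effect of over 50% in size; the assay follows cell death caused by Vpr and the record does not say whether a fall means rescue or toxicity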
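Fission yeast strain RE007, carrying one chromosomally integrated HIV-1 vpr copy, was seeded at OD 0.01 in PMG+AL medium with 23 nL pinned compound. After 24 h at 30 °C and 99% humidity, viability was read by BacTiter-Glo luminescence.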
An asterisk follows results filed as active; ? = inconclusive; . = no result given; & = joins results of further samples; [ ] = remark or other dose. Unless noted, calls come from the whole dose curve; as a rule, active means well fitted rising curve with a large enough effect; inconclusive means small, poorly fitted or top-dose-only effect; inactive means no such curve, though single readings can be large or run the other way. Potency is the fitted concentration of half-maximal effect.

SMILES | Lassa entry inh | SARS PLP yeast | Cruzain noTriton | NS1 function inh | 2A StopGo | Marburg entry inh | Cruzain Triton | RE007 growth inh
COc1ccc([C@@H](C)NC(=O)CCc2nnc(-c3cc(C)on3)o2)cc1 | 26% | 1% | . | 0% | 20% | -1%[46.1 µM] | . | -13%
O=C(Nc1cccc(NC(=O)c2cccc(F)c2)c1)c1ccccc1 | 14%[46.1 µM] | 1% | . | 1% | 3% | 22%[46.1 µM] | . | 9%
COc1cccc(/C=N/NC(=O)c2cc(C34CC5CC(CC(C5)C3)C4)[nH]n2)c1 | -10% | -2% | -5% | 21% | -28% | ? | -7.4% | -16%
Cc1ccc2ccc3cc(C(=O)N4CCN(c5ccccc5F)CC4)nc3c2[nH]1 | -8%[46.1 µM] | . | -22% | . | -11% | . | -2.3% | .
O=C(CSc1nnc(-c2ccc(Br)cc2)o1)Nc1cccc2ccccc12 | 7% | . | ? | -5% | -20% | 28% | 4.0% | -5%
COC(=O)c1sccc1NC(=O)c1cccc(OC)c1 | -7% | -9% | -11% | -69% | -17% | ? | -9.2% | -10%
Cc1ccc(-c2nnc(-c3ccccc3S(=O)(=O)Cc3ccc(Cl)cc3)o2)cc1 | ? | 1% | ? | 11% | -8% | -11% | -2.3% | 30%
CC(C)c1ccc(C2OCC(C)([N+](=O)[O-])CO2)cc1 (stereo unspecified) | ? | . | . | . | 12% | 24%[46.1 µM] | . | 2%
O=C(NCCNC1CCN(Cc2ccccc2)CC1)c1cccs1 | . | -5% | -5% | 0% | . | 3% | 1.0% | .
Cc1occc1C(=O)Nc1cccc([N+](=O)[O-])c1C | . | 0% | . | -6% | -6% | . | . | -4%
CC(=O)N(Cc1cccnc1)Cc1cc2ccccc2[nH]c1=O | ? | 0% | -4% | 5% | -14% | 0% | 0.0% | 10%
COc1ccccc1N(C)S(=O)(=O)c1ccc(C(=O)N(C)Cc2ccc(Cl)s2)cc1 | 11µM* | -1% | . | . | ? | ? | . | 24%
CCc1ccc2nc(SCC(=O)NCC3CCCO3)c(C#N)cc2c1 (stereo unspecified) | 18% | 1% | . | 1% | 8% | ? | . | -4%
COc1ccc(CC(=O)Nc2c(C(=O)N3CCN(c4ccccc4)CC3)oc3ccccc23)cc1OC | ? | -18% | ? | -2% | 46%&27%[activator] | ? | -9.4% | -8%
Cc1cc(O)c(/C=N/Nc2cccc(Cl)c2)c(=O)o1 | -25% | -27% | -2% | -157% | ? | -23% | 1.8% | 190%
CCOC(=O)C1CCN(C(=O)c2cccnc2Cl)CC1 | -10% | 0% | -14% | 6% | -3% | 9% | 2.1% | -8%
O=C(Nc1ccc(Cl)cc1C(=O)NCC1CCCO1)c1ccc(Cl)cc1Cl (stereo unspecified) | ? | -45% | 2% | -17% | -3% | 9% | -4.3% | .
CN(CC(=O)Nc1ccc(S(=O)(=O)N2CCCC2)cc1)CC(=O)Nc1cccc(F)c1 | ? | 0% | . | . | -18% | ? | . | 9%
O=C(COc1ccc(Br)cc1CO)N1CCCc2ccccc21 | -18%[46.1 µM] | -2% | . | -11% | 6% | 1%[46.1 µM] | . | 7%
COc1cccc(-c2cc(=O)[nH][nH]2)c1 | 23%[46.1 µM] | 9% | . | . | 13% | 7%[46.1 µM] | . | 10%
CN(C)S(=O)(=O)N1CCN(c2ccccc2Cl)CC1 | 7% | -9% | 0% | -5% | 9% | 23% | 5.6% | -14%
CCn1c(-c2ccc3ncccc3c2)n[nH]c1=S | -4% | -1% | -14% | 15% | 10% | 7% | 4.1% | 12%[3.69 µM]
O=C(c1noc2c1CCc1ccccc1-2)N1CCOCC1 | 4% | -5% | -15% | -4% | 65%[activator] | -2% | 0.1% | 13%
Cc1ccccc1SCC(=O)Nc1cc(S(=O)(=O)N2CCOCC2)ccc1N1CCOCC1 | -23% | 1% | . | -17% | 24% | -21%[46.1 µM] | . | -26%
COc1ccc(C(F)(F)F)cc1N/C=C\c1nnnn1-c1ccc(C)cc1 | ? | -8% | ? | 2% | -22% | -7% | -6.9% | -20%
O=C1CCN(CCc2ccccc2)CCN1[C@H](CO)Cc1ccccc1 | . | 9% | . | 15% | -11% | . | . | 27%
O=C(O)CC(C(=O)Nc1ccc(Cl)c(Cl)c1)C1CCCO1 (stereo unspecified) | ? | 6% | -8% | 1% | . | 4% | 4.1% | 2%
COc1ccc(S(=O)(=O)N(CCc2ccccc2)CC(=O)Nc2cccc(OC)c2)cc1 | ? | . | -11% | . | -10% | . | 4.1% | .
CCOC(=O)c1ccc(NC(=O)C(=O)NCc2ccco2)cc1 | 3% | 1% | -4% | 3% | -4%&10% | 13%&13% | -0.1% | 10%
C/C(N)=C(/C#N)C(=O)COC(=O)c1cc(-c2cccc3ccccc23)nc2ccccc12 | -24% | 14% | -7% | 12% | -20% | -22% | -2.6% | -1%
COc1ccc(-c2cc(-c3ccccc3O)[nH]n2)cc1OC | ? | -8% | 6% | -10% | 29% | -27% | -11% | ?
CCOc1ccccc1/C=N/NC(=O)Cc1csc(Nc2cccc(C(F)(F)F)c2)n1 | ? | -11% | 10µM* | 16% | 0% | -26% | -2.0% | 31%
CC(=O)c1ccc(-n2c(CCC(=O)O)ccc2-c2ccccc2)cc1 | . | 1% | . | 5% | 2% | . | . | -4%
CCn1c(O)c(N=NC(=O)C(O)c2ccccc2)c2ccccc21 (stereo unspecified) | -13% | 0% | . | -2% | 4% | -4%[46.1 µM] | . | 1%
CCOC(=O)C1CCN(C(=O)c2ccc(OCC(=O)N3CCOCC3)c(OC)c2)CC1 | 10% | -3% | . | . | -16% | 2%[46.1 µM] | . | 1%
O=S(=O)(c1ccc(F)cc1)N(CC(O)Cn1c2ccccc2c2ccccc21)c1ccccc1 (stereo unspecified) | ? | . | -2% | . | ? | ? | 12% | .
CN(CC(=O)NCCc1ccc(S(N)(=O)=O)cc1)CC(=O)Nc1ccccc1C(F)(F)F | 6% | 10% | . | . | -7% | ? | . | 4%
CC(=O)c1cn(CC(=O)Nc2ccccc2Cl)c2ccccc12 | . | -4% | . | 14% | ? | . | . | 9%
O=C(NCc1ccccc1Cl)c1ccc[nH]1 | 8% | -1% | . | 0% | 32%[activator] | -1%[46.1 µM] | . | -9%
Cc1ccc(Cc2nnc3n(-c4ccccc4)nc(C(=O)c4ccccc4)n3c2=O)cc1 | ? | 7% | 25µM* | 3% | -15% | ? | -4.3% | 3%
COc1cc(C)c(NC(=O)COc2ccc3c(c2)CCC3)cc1OC | 0% | -2% | . | . | -10% | 11% | . | -3%
Cc1nnc(SCc2ccc(CC(=O)O)cc2)o1 | 6% | 0% | 3% | -2% | -9% | 28% | 5.7% | 0%
CCOc1ccc(NC(=O)CN(C)C(=O)c2cc(-c3cccs3)nn2-c2ccccc2)cc1OCC | -16% | -3% | . | . | -6% | -24% | . | -11%
COC(=O)c1c(NC(=O)c2ccccc2)sc2c1CC(C)(C)NC2(C)C | . | 1% | . | 0% | -16% | . | . | -9%
Cc1ccc(C)c(S(=O)(=O)N2CCN(C(=O)Cc3ccc(S(=O)(=O)N4CCOCC4)s3)CC2)c1 | -1% | 0% | . | . | ? | 4% | . | -14%
CCc1ccc(S(=O)(=O)N/N=C\c2cn(CC(N)=O)c3ccccc23)cc1 | ? | -9% | . | 0% | 116%[activator] | 0% | . | -5%
Cc1ccc(C(=O)COC(=O)c2nc(Cl)ccc2Cl)cc1 | 13%[46.1 µM] | 0% | . | . | 55%[activator] | 6%[46.1 µM] | . | 4%
CCc1nn(CC(=O)Nc2ccc(Br)c(C)c2)c(=N)s1 | 8% | 0% | . | 9% | 1% | ? | . | -26%
Cc1ccc(Nc2cc(C)c(C#N)c3nc4ccccc4n23)c(C)c1 | 0%[46.1 µM] | . | -1% | . | -27% | 12%[46.1 µM] | 0.1% | .
O=C(Cn1c(=O)nc(-c2ccccc2)c2ccccc21)NCc1ccccc1Cl | ? | . | -8% | . | 0% | . | -1.7% | .
COc1ccc(C2=NN(C(N)=S)C(c3ccccc3)C2)cc1 (stereo unspecified) | -25% | ? | . | . | 21% | -14%[46.1 µM] | . | 52%
Cc1ccccc1NS(=O)(=O)c1ccc(C(=O)N2CC(C)OC(C)C2)cc1 (stereo unspecified) | -11% | 2% | . | . | 0% | -7% | . | 2%
CCCCCc1ccc(-c2nnc(N)s2)cc1 | 0%[46.1 µM] | -4% | . | -37% | 41%[activator] | 25%[46.1 µM] | . | -1%
Cc1cc(=O)oc2c(C)c(OCC(=O)N3CCN(Cc4ccccc4)CC3)ccc12 | ? | 0% | . | -16% | -16% | ? | . | -6%
O=Nc1ccc(NOC(=O)c2ccc(Br)cc2)cc1 | . | 1% | -12% | -18% | . | 6% | -2.7% | .
Nc1ccc(N2CCCCC2)c(S(=O)(=O)Nc2ccc(Cl)cc2)c1 | . | -1% | . | 5% | 67%[activator] | . | . | -9%
Cc1ccccc1OCCn1c(=O)sc2ccccc21 | -1% | -12% | -9% | -2% | -7% | ? | -6.7% | -27%
CC1Cc2ccccc2N1C(=O)c1cccnc1 (stereo unspecified) | 2% | -2% | 8% | ? | 15% | 14% | -1.9% | 2%
Cc1ccc(S(=O)(=O)NCCC(=O)NCc2ccccn2)cc1 | 0% | -4% | . | . | 25% | 0%[46.1 µM] | . | 0%
Cc1ccc(S(=O)(=O)N2CCC(C(=O)NNS(=O)(=O)c3ccc(Cl)cc3)CC2)cc1 | -5% | -7% | 5% | 17% | -22% | -26% | 2.7% | -8%
Cc1c(NC(=O)C(C)OC(=O)Cc2ccc(F)cc2)c(=O)n(-c2ccccc2)n1C (stereo unspecified) | -6% | . | . | . | -21% | 4% | . | -14%
CC(=O)Nc1ccc(NC(=O)C(=O)N/N=C/c2cccnc2)cc1 | . | -3% | . | -1% | -5% | . | . | -13%

Compounds were not picked by outcome; overall some 4.7% were active at least once.
